Screening data deposited in PubChem BioAssay by National Center for Advancing Translational Sciences (NCATS).
Rango-impB inh: qHTS Assay for Inhibitors of Rango (Ran-regulated importin-beta cargo) - Importin beta complex formation. Rango CFP/YFP FRET sensor + importin beta, 45 min. actives 0.031% (n = 340,000). Potency, µM (series often up to 92.2 µM), for inactives: at the highest dose inhibition of complex formation. Importin subunit beta-1 (Homo sapiens), Q14974; active = rising FRET ratio curve, often small or poorly fitted; inconclusive = mostly compound fluorescence or quenching in the first reads; inactive = flat curves in all reads;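 also: potency is read from the fitted curve at half-maximal effect; 0% = DMSO wells and 100% = buffer wells lacking importin beta; nearly all actives have a fitted effect of over 15% in size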
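FRET biosensor (snurportin 1 IBB flanked by EYFP and cerulean), 50 nM, with compound 5 min, then 0.125 microM importin beta in PBS, 1 mM DTT, 0.02% Tween-20, 0.1% BSA. CFP/YFP ratio read after 45 min at room temperature; pre-read flags interference.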
miR-21 FLuc: qHTS Assay for Modulators of miRNAs and/orActivators of miR-21 | HeLa miR-21 FLuc reporter, luciferase, 48 h | Potency, µM (series often up to 38.3 µM), for inactives: at the highest dose reporter change, positive = more light | 340,000 tested, under 10 active; active = well fitted rising curve with a large enough effect; inconclusive = small, poorly fitted or top-dose-only effect; inactive = no such curve, though single readings can be large or run the other way;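 also: % of control where 0% means no effect; miR-21 action dims this reporter so a rising signal means less miR-21 action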
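Compounds were titrated across several concentrations (up to approximately 40 uM) and incubated 48 hours with HeLa miR-21-FLuc reporter cells (miR-21 target sequence downstream of FLuc, endogenous miR-21). Readout was firefly luciferase luminescence after lytic detection reagent.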
GLA inh pH 4.5: qHTS Assay for Inhibitors of Human alpha-Galactosidase at pH 4.5. AID 1467, 2008. 230,000 tested, under 10 active. purified enzyme, 4-MU-alpha-Gal fluorescence, pH 4.5. Alpha-galactosidase A (Homo sapiens), P06280. activity change, negative = inhibition, % at 105 µM; inconclusive = small, poorly fitted or top-dose-only inhibition, or a rising curve; inactive = flat fitted curve, though single readings scatter; no compound was filed as active;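 also: 0% = full activity with enzyme and -100% = basal without enzyme; dose as in the result columns while the protocol names 77 µM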
Target sequence (P06280 whole entry, looked up): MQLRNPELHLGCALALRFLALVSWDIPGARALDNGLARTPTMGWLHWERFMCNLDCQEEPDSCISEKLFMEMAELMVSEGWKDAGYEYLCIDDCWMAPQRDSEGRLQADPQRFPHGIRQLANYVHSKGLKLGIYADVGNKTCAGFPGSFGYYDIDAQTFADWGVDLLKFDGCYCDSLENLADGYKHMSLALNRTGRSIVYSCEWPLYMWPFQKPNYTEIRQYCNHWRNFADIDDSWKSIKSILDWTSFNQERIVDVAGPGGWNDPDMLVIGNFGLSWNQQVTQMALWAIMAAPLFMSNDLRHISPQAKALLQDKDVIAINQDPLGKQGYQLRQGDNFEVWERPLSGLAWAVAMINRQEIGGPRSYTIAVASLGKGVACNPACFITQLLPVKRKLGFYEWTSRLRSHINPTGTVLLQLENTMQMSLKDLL
Rango dissoc inh: qHTS Assay for Inhibitors of RanGTP induced Rango (Ran-regulated importin-beta cargo) - Importin beta complex dissociation; Snurportin-1 (Homo sapiens) + GTP-binding nuclear protein Ran (Homo sapiens) + Importin …; Biochemical FRET Rango-importin beta, RanGTP-induced dissociation; Potency, µM (top dose mostly 46.1 µM), without a hit: at the highest dose activity change, negative = inhibition; actives 0.071% (n = 340,000); active means falling FRET ratio curve, often poorly fitted, with flat reads before Ran was added; inconclusive means other falling curves, or compound fluorescence or quenching; inactive means flat or rising ratio curve;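 also: potency is read from the fitted curve at half-maximal effect; % of control where 0% means no effect; nearly all actives have a fitted effect of over 45% in size; -100% = wells without RanGTP and RCC1; the record marks most hits as doubtful in a second field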
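Rango (0.1 uM)–importin beta (0.25 uM) complex; RanGTP-RCC1 trigger; 45 min RT; CFP/YFP FRET read.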
Numbers without * were called inactive; ? = inconclusive; . = no result given; & = joins results of further samples; [ ] = another dose, or the depositor's remark. An excerpt; rates above refer to the full screens.

no.	Structure	GLA inh pH 4.5	Rango-impB inh	miR-21 FLuc	Rango dissoc inh
1	CCCNC(=O)c1ccc(N2CCC3(CC2)CC(c2ccccc2)=NO3)c(NC(=O)Cc2ccc(F)cc2)c1	.	0.8%	18%	8%
2	S=C(NCc1ccncc1)Nc1ccccc1	3	0.3%	3%	3%
3	CCCCC(=O)Nc1ccc(C(=O)N2CCN(c3ccccc3OC)CC2)cc1	4	0.7%	-4%	2%
4	CC(=O)Nc1ccc(NC(=O)C(NS(=O)(=O)c2ccc3c(c2)OCCO3)C(C)C)cc1 (stereo not given)	.	4.9%	.	-10%
5	Nc1c(C(=O)O)sc2nc(-c3ccccc3)cc(-c3ccc(Cl)cc3)c12	-1	1.6%	-8%	-7%
6	CCn1c(=O)[nH]c2cc(Cl)c(Cl)cc21	1&5	-4.9%	.	-16%
7	CN(CC(=O)Nc1nc2ccccc2s1)S(=O)(=O)c1ccc(Br)cc1	8	-4.3%	12%	10%
8	CCOC(=O)C1CCN(C(c2ccc(OC)c(OC)c2)c2sc3nc(C)nn3c2O)CC1 (stereo not given)	0	-3.8%	-9%	-3%
9	CON/C=N/C(=S)Nc1ncc(C(F)(F)F)cc1Cl	-5	-3.9%	-3%	19%
10	CCCn1nnnc1NCc1ccc(N2CCCC2)cc1	-9	0.3%	-3%	16%

(further entries)
no.	Structure	GLA inh pH 4.5	Rango-impB inh	miR-21 FLuc	Rango dissoc inh
11	Oc1ccc(Br)cc1/C=N/n1c(COc2ccccc2)n[nH]c1=S	.	?	-1%	?
12	Nc1cccc(Nc2nc(OC(C(F)(F)F)C(F)(F)F)nc(OC(C(F)(F)F)C(F)(F)F)n2)c1	?	-3.3%	27%	9%
13	Cc1ccc(CSCC(=O)NCCc2ccccc2)cc1	0	-1.3%	-16%	1%
14	CCCCOC(=O)c1cc(C)nc2ccc(Br)cc12	-1	-1.1%	0%	10%
15	O=C(C1CCN(S(=O)(=O)N2CCC3(CC2)OCCO3)CC1)N1CCN(Cc2ccccc2)CC1	9	-1.3%	-4%	0%
16	Cc1cc(C)cc(NC(=O)OCCN2CCN(Cc3ccccc3)CCC2=O)c1	-12&-1	1.6%	-7%	-5%
17	COc1ccc(/C=C(\C#N)C(=O)OCC(=O)NCc2ccccc2OC)cc1	.	-1.5%	.	-5%
18	CC1=C(C(=O)N2CCCCC2)C(c2cccs2)C2=C(CCCC2=O)N1 (stereo not given)	8	4.8%	0%	-8%
19	Cc1ccsc1C(=O)OCc1cc(=O)n2ccsc2n1	.	-0.9%	.	-16%
20	COC(CNC(=O)c1ccc2c(c1)nc(C)n2-c1cc(C)cc(C)c1)OC	.	3.2%	-10%	1%

(more compounds)
no.	Structure	GLA inh pH 4.5	Rango-impB inh	miR-21 FLuc	Rango dissoc inh
21	COc1ccc(NC(=O)c2ccc(N3C(=O)C4CC=C(C)CC4C3=O)cc2)c(OC)c1 (stereo not given)	.	-0.4%	-1%	1%
22	C=CCn1nc(-c2ccccc2)c(N2CCCCC2)cc1=O	7	-2.3%	11%	4%
23	O=C(Cn1c(=O)c2cccn2c2ccccc21)Nc1cc(F)ccc1F	.	3.3%	-20%&-2%	-19%
24	O=C(NCCN1C(=O)S/C(=C/c2cccnc2)C1=O)C1CC(=O)N(Cc2ccccc2)C1 (stereo not given)	-1	-1.6%	0%	5%
25	COc1ccc(C(=O)COC(=O)/C=C/c2ccco2)cc1F	.	2.6%	.	-4%
26	COc1cc(CN2CCN(c3cc(C)ccc3C)CC2)cc([N+](=O)[O-])c1O	.	?	.	-15%
27	CCOc1ccc2oc(C(=O)OCC(=O)N3CCCC(C)C3)c(C)c2c1 (stereo not given)	.	2.3%	.	-11%
28	COC(=O)c1nc(NNC(=O)c2ccccc2)sc1-c1ccccc1	.	8.4%	0%	2%
29	CCn1c(SCC(=O)NCCc2ccccc2)nc2c([nH]c3ccccc32)c1=O	.	6.2%	6%	4%
30	COc1ccc2c(C)cc3n[nH]c(=S)n3c2c1	0	0.0%	13%	-4%

More records.
no.	Structure	GLA inh pH 4.5	Rango-impB inh	miR-21 FLuc	Rango dissoc inh
31	Cc1cc2cc3c(cc2nc1SCC(=O)OC(C)C)OCCO3	0	-2.1%	-4%	4%
32	COc1ccc(OC)c(NC(=O)CSc2ncnc3sc(C)cc23)c1	.	-2.0%	.	1%
33	CCCc1nn2c(N)c(/C=C3\C=Nc4ccccc43)c(=O)nc2s1	-8&0	?	6%&-2%	?
34	O=C(Nc1ccccc1C(=O)Nc1ccc2c(c1)OCO2)c1cccs1	-10	-0.9%	-13%	13%
35	Cn1c(-c2cc(Cl)ccc2O)nc2c1c(=O)[nH]c(=O)n2Cc1ccccc1	-1	2.1%	-4%	3%
36	N#CCC(=O)N/N=C/c1cc(Br)ccc1OCc1cccc2ccccc12	.	1.4%	-5%	3%
37	Cn1nc([N+](=O)[O-])nc1Sc1nnnn1-c1cccc(C(=O)O)c1	10	3.1%	0%	-3%
38	O=C(Nc1cccnc1)c1ccco1	-7	0.9%	-2%	12%
39	CCCOc1ccc(-c2nc(OC)c3ccccc3n2)cc1	1	0.4%	-37%	-20%
40	COc1ccc(OC)c2sc(NC(=O)c3ccc(Br)s3)nc12	3	0.4%	-4%	-22%

Next section
no.	Structure	GLA inh pH 4.5	Rango-impB inh	miR-21 FLuc	Rango dissoc inh
41	C=CCNc1sc(C(=O)c2ccc(C)cc2)c(N)c1C#N	4	?	-9%	?
42	COc1ccc2cc(S(=O)(=O)NCc3cccnc3)ccc2c1	.	-7.8%	0%	-16%
43	CNC(=S)N1CCC(NC(=O)c2ccco2)CC1	3	.	-1%	.
44	COc1ccccc1NC(=O)C1=C(C)Nc2nnnn2C1c1ccccn1 (stereo not given)	-7	2.7%	-1%	13%
45	CCn1nc(C(=O)OCC(=O)c2cc(C)n(Cc3cccs3)c2C)c2ccccc2c1=O	-2	0.0%	-25%	0%
46	Cc1cc(C)n(CCNC(=O)CC2C(=O)NCCN2Cc2ccc(C)o2)n1 (stereo not given)	6	?	1%	-30%
47	O=S(=O)(O)c1cccc2c(N=Nc3ccc(O)c4ncccc34)cccc12	.	?	6%	-8%
48	Cc1ccc(C(=O)N2CCN(Cc3ccc4c(c3)OCO4)CC2)cc1[N+](=O)[O-]	3	1.2%	12%	-8%
49	CC(C)Sc1nnc(SCC(=O)NCCCN2CCCC2=O)s1	.	-1.4%	.	27%
50	Cc1cc2[nH]c(=O)c(=O)[nH]c2cc1S(=O)(=O)Nc1cccc(F)c1	.	-1.0%	-3%	-1%

The results go on.
no.	Structure	GLA inh pH 4.5	Rango-impB inh	miR-21 FLuc	Rango dissoc inh
51	CCc1ccc(-c2cn3c(n2)SCC3)cc1	4	-2.7%	-58%	-2%
52	CS(=O)(=O)Nc1nnc(CCc2ccccc2)s1	.	5.5%	-1%	?
53	O=C(O)c1ccc(Sc2nnc(-c3cccc(Br)c3)o2)c([N+](=O)[O-])c1	4	11%	-2%	14%
54	Cc1ccccc1Nc1nc(N)nc(COC(=O)c2cccc(S(=O)(=O)N(C)C)c2)n1	-4	2.7%	-15%	1%
55	C=CCn1c(=S)[nH]c2sccc2c1=O	2	4.0%	-1%	1%
56	COc1cc2c(cc1OC)C(=S)NC(C)(C)C2	.	0.2%	-10%	8%
57	CSc1nnc(-c2ccccc2)n1C	1	1.1%	-9%	-13%
58	O=C(CNCc1ccc(F)cc1)Nc1ccc(C(=O)N2CCCCC2)cc1	.	1.6%	-2%	2%
59	O=C(CSc1nnc(Cc2cccs2)n1C1CCCCC1)N1CCN(C(=O)c2ccco2)CC1	3	-0.6%	-31%	-28%
60	c1ccc(OCc2nnc(-c3ccccc3)o2)cc1	-7	-1.5%	-54%	-9%

Further entries.
no.	Structure	GLA inh pH 4.5	Rango-impB inh	miR-21 FLuc	Rango dissoc inh
61	COc1cc2c(cc1OC)C(c1cccc(OC)c1OC)CC(=O)N2 (stereo not given)	1	4.9%	-21%	-3%
62	CC12CCC(C(=O)N3CCCc4ccccc43)(OC1=O)C2(C)C (stereo not given)	-5	0.7%	0%	-2%
63	C=CCOC(=O)C1=C(C)NC(=O)NC1c1ccc(OC(=O)c2ccco2)c(OC)c1 (stereo not given)	-3	-2.7%	-10%	0%
64	CN(CC(=O)Nc1cccc(S(=O)(=O)N2CCCC2)c1)CC(=O)Nc1ccc(Cl)c(C(F)(F)F)c1	.	-3.9%	.	5%
65	CCOc1ccc(NC(=O)N(CCC(C)C)C(C)c2ccco2)cc1 (stereo not given)	-11	-2.7%	-7%	-13%
66	COc1ccccc1C(=O)NC(=O)COC(=O)c1ccc(Cl)nc1	.	?	.	-4%
67	O=C(c1ccoc1)N1CCC2(CCCN(Cc3ccc(F)c(F)c3)C2)C1 (stereo not given)	.	0.4%	3%	0%
68	COc1ccc(CNc2nc3nc(C)cc(C)n3n2)cc1OC	4	0.8%	-7%	-3%
69	CC(=O)Nc1ccc(NC(=O)C2CC(=O)N=C(N)S2)cc1 (stereo not given)	-3	0.2%	2%	12%
70	CCN(Cc1ccccc1)Cc1cc(OC)cc(OC)c1	-5	0.8%	2%	15%

Continued.
no.	Structure	GLA inh pH 4.5	Rango-impB inh	miR-21 FLuc	Rango dissoc inh
71	Cc1cccc(C)c1NC(=O)CSCc1cccc(CSCC(=O)Nc2c(C)cccc2C)n1	-3	0.5%	-1%	-1%
72	CCOc1ccc(-n2cc(-c3ccccc3)c3c(=O)[nH]cnc32)cc1	-1[21.1 µM]	0.1%	-2%	6%
73	CCN(CC(=O)Nc1ccccc1OC)C(=O)c1ccc(N(C)S(=O)(=O)c2ccc(C)cc2)cc1	.	-4.0%	.	-2%
74	CCOC(=O)c1c(N)sc2c1CCS(=O)(=O)C2	-3	-0.5%	0%	-13%
75	COc1ccc(-n2cnc3cc(N)ccc32)cc1	-2	-0.3%	-64%	-25%
76	COc1ccc(CC(=O)NCCC(C)C)cc1S(=O)(=O)N1CCOCC1	2	0.2%	-4%	-12%
77	CCN(CC)CC(=O)N(CC(=O)Nc1c(C)cc(C)cc1C)C1CCCCC1	-4	1.4%	1%	-2%
78	CC(C)(C)OC(=O)NNC(=O)Nc1ccccc1C(F)(F)F	5	3.6%	0%	3%
79	COc1ccc2nc(C)cc(N3CC(C)OC(C)C3)c2c1 (stereo not given)	3	0.7%	9%	1%
80	CC1CC(C)(C)CC2(C1)NC(=O)N(CC(=O)Nc1ccc3[nH]c(=O)[nH]c3c1)C2=O (stereo not given)	.	?	.	-21%

(list continues)
no.	Structure	GLA inh pH 4.5	Rango-impB inh	miR-21 FLuc	Rango dissoc inh
81	Cc1csc2nc(O)c(C(=O)NC3CCCCC3C)c(=O)n12 (stereo not given)	.	-6.1%	.	4%
82	Cc1ccc(OCC(=O)N[C@@H](C)c2nnc3ccccn23)cc1C	.	-1.0%	-3%	8%
83	COc1cccc(NC(=O)CSC2=C(C#N)C(c3ccco3)C3=C(CCCC3=O)N2)c1 (stereo not given)	-20	1.7%	-12%	1%
84	N#Cc1cnn2c(-c3ccccc3)ccnc12	-8	-1.6%	-17%	-18%
85	Cc1nc(CC(=O)N2CCN(c3cccc(C)c3C)CC2)cs1	-1	-0.4%	-9%	-7%
86	O=C(c1ccco1)n1nc(-c2cccnc2)nc1NCc1ccco1	-14[21.1 µM]	-1.6%	-2%	-7%
87	N#Cc1c(NC(=O)CSc2nc(N)cc(=O)[nH]2)sc2c1CCCC2	2	5.1%	-9%	4%
88	COc1cccc(/C=N/n2c(COc3ccccc3)n[nH]c2=S)c1O	.	?	0%	-22%
89	NC(=O)CSc1nnc(-c2cccs2)n1-c1ccccc1	-4	-0.5%	-4%	9%

Sorted by formula weight (lowest first): 3 of the compounds above
no.	Structure	GLA inh pH 4.5	Rango-impB inh	miR-21 FLuc	Rango dissoc inh
89	NC(=O)CSc1nnc(-c2cccs2)n1-c1ccccc1	-4	-0.5%	-4%	9%
81	Cc1csc2nc(O)c(C(=O)NC3CCCCC3C)c(=O)n12 (stereo not given)	.	-6.1%	.	4%
88	COc1cccc(/C=N/n2c(COc3ccccc3)n[nH]c2=S)c1O	.	?	0%	-22%
